StopGo RLuc: FMDV 2A StopGo reporter, Renilla signal; Potency, µM (titrated, usually from 57.5 µM), inactives show at the top dose signal change, negative = less light; 120,000 tested, 0.32% active; HEK cells with a luciferase reporter of 2A StopGo recoding; AID 1745857; active means well fitted falling curve with a large enough effect; inconclusive means small, poorly fitted or top-dose-only effect; inactive means no such curve, though single readings can be large or run the other way; note: nearly all actives have a fitted effect of over 55% in size; overnight with compound
2A firefly: lowers the firefly signal of an FMDV 2A StopGo reporter; HEK cells with a luciferase reporter of 2A StopGo recoding; Potency, µM (series often up to 57.5 µM), without a hit: top-dose signal change, negative = less light; 120,000 tested, 0.23% active; active = well fitted falling curve with a large enough effect; inconclusive = small, poorly fitted or top-dose-only effect; inactive = no such curve, though single readings can be large or run the other way; note: nearly all actives have a fitted effect of over 60% in size; overnight with compound
Numbers without * were called inactive; ? = inconclusive; & = joins results of further samples; [ ] = remark or other dose. % is set by controls: 0 for no effect and ±100 for the full control effect; potency is the fitted concentration of half-maximal effect.

structure | StopGo RLuc | 2A firefly
CCC(CC)C(=O)N1N=C(c2cccc(OC)c2)CC1c1ccc2nccnc2c1 (centres undefined) | 12% | 22%
COc1cc(NC(=O)CSc2nc3nc(C)c(Cc4ccccc4Cl)c(C)n3n2)cc(OC)c1 | -7% | -21%
CCOP(=O)(OCC)c1nc(-c2ccc(Cl)cc2)oc1NCc1ccco1 | 11% | 2%
CCOC(=O)c1c(C)[nH]c(C(=O)OC(C)C(=O)Nc2ncc(Cl)cc2Cl)c1C (centres undefined) | -4% | 9%
COc1ccc(NC(=O)CCn2nc(-c3ccccc3OC)c3c(C)cc(C)nc32)cc1 | 12% | -19%
COC(=O)c1ccc2c(=O)n(CCCCCC(=O)NCc3ccccc3)c(=O)[nH]c2c1 | -15% | -23%
CCN(CC)CCCNc1oc(/C=C/c2cccs2)nc1C#N | -19% | 36%[activator]
Cn1c(=O)c2c(nc(N3CCN(c4ccccc4)CC3)n2Cc2ccc(F)cc2)n(C)c1=O | -9% | -2%
O=C(CCC1N=C2c3ccccc3N=C(SCc3ccccc3F)N2C1=O)NCc1ccccc1 (centres undefined) | 5% | -15%
CCc1cnc2c(c1SCC(=O)N1CCC(C)CC1)c(=O)n(C)c(=O)n2C | 26% | -15%
Cc1c(-c2ccc(Cl)cc2)nc2ccccc2c1C(=O)NC1CCCCCC1 | 0% | 40%[activator]
COc1cc2c(c(OC)c1)C(c1ccc(Cl)cc1)C1=C(CCCC1=O)N2 (centres undefined) | 8% | -7%
COc1ccc(NC(=O)CN2C(=O)c3cccnc3Sc3ccccc32)cc1OC | -1% | 45%[activator]
Cc1ccccc1NC(=O)CSc1ccc(-c2cccs2)nn1 | 20% | 24%
CCCS(=O)(=O)C(C)C(=O)O (centres undefined) | 2% | -5%
O=C(NCc1ccc(F)cc1)c1cc(Sc2ccc(F)cc2F)nc2ccccc12 | 10% | -17%
CCc1ccc(NC(=O)CSc2ncc(S(=O)(=O)c3cc(C)ccc3C)c(=O)[nH]2)cc1 | -6% | 2%
O=C(O)C12CC3C4C5CC(C6C5C3C61)C42 (centres undefined) | 10% | 2%
O=C(Cc1ccc([N+](=O)[O-])cc1)Nc1ccc2oc(C3CC3)nc2c1 | -2% | 81%[activator]
CC(=O)Oc1ccc(-c2cnc3ccccc3n2)cc1 | 41%[activator] | 285%[activator]
Cc1ccc2c(c1)c1c(c(=O)n(Cc3ccccc3)c(=O)n1Cc1cccc(C(F)(F)F)c1)n2C | -11% | -14%
CCN(CC)S(=O)(=O)c1cc(C)ccc1N | 56%[activator] | 3%
Cn1nc(C(=O)N(C2CC2)C2CCCc3ccccc32)c2ccccc2c1=O (centres undefined) | 80%[activator] | 16%
Cc1cc(C)cc(C(=O)N2CC(=O)Nc3ccc(C)cc3C2c2ccccc2)c1 (centres undefined) | 354%[activator] | 17%
C=CCn1c(SCc2coc(-c3ccc(C)cc3)n2)nnc1C1CCS(=O)(=O)C1 (centres undefined) | ? | -3%
O=C(N/N=C/c1ccccc1)C1CC1 | 1% | 0%
O=C(NC1CC1)C(NCc1cccc(C(F)(F)F)c1)c1ccc(F)cc1 (centres undefined) | 61% | ?
COc1ccc(NS(=O)(=O)c2ccc(N3C(=O)C(C)CS3(=O)=O)cc2)cc1Cl (centres undefined) | 36%[activator] | 5%
CC1CCC(NC(=O)c2ccc(C(N)=O)cc2)CC1 (centres undefined) | 2% | 160%[activator]
CN(C)c1cccc(C(=O)Oc2ccc(C#N)cc2)c1 | -10%[1.06 µM] | 19%
CC(Nc1ccc2oc(C(C)(C)C)nc2c1)c1nc(C(C)(C)C)no1 (centres undefined) | ? | ?
Cc1nc(SCC(=O)Nc2ccccc2F)[nH]c(=O)c1Cc1ccccc1 | 23% | 7%
O=C1CCCc2c1cc(C(=O)NC1CCCC1)c(=O)n2-c1ccc(C(F)(F)F)cc1 | -10% | 4%
CCN(CC(=O)NC)S(=O)(=O)c1cccc2cc(C)cnc12 | -16% | -18%
Cc1cc(C)cc(OCC(=O)Nc2ccc(-c3nc4ccccc4o3)cc2)c1 | -5%&-11% | 18%&7%
O=C(Nc1ccc2oc(-c3ccc(F)cc3)nc2c1)c1cccc(Cl)c1 | 8% | 15%
COc1ccc(S(N)(=O)=O)cc1-c1nnc2c3ccccc3c(C)nn12 | 5% | 18%
Cc1c(C(=O)Nc2ccccc2)sc2nc(-c3cc4cc(Cl)ccc4oc3=O)[nH]c(=O)c12 | -7% | 7%
O=C(Oc1ccccc1Cl)c1cc(-c2ccc3c(c2)OCCO3)on1 | -2% | 0%
Cc1cc(C)cc(NC(=O)c2cc(S(=O)(=O)N3CCC(C)CC3)cn2C)c1 | -11% | -9%
COc1cc(F)ccc1-c1ccc(=O)n(Cc2ccc(F)cc2Cl)n1 | 20% | 25%
CCCCNc1oc(/C=C/c2ccc(OCC)cc2)nc1C#N | 21% | 0%
COc1ccc(C2SCc3cc(C)c(C)cc3CS2)cc1OC | 6% | 0%
Cc1ccccc1CC(=O)N(Cc1ccco1)C1CC1 | 15% | 20%
O=C(COC(=O)CCc1c[nH]c2ccccc12)Nc1ccc([N+](=O)[O-])cc1C(F)(F)F | -6% | 20%
Cc1ccccc1C(C)Nc1ccc([N+](=O)[O-])cc1C#N (centres undefined) | 23% | 0%
CN(c1nnc(NC(=O)Nc2ccc(Br)cc2)s1)C1CCCCC1 | 2% | 41%[activator]
COC(=O)c1c(NC(=O)CN2CCCc3ccccc32)sc(C)c1C | 12% | 17%
CCC(CO)NC(=O)Nc1sc(C)c(C)c1C#N (centres undefined) | 12% | 19%
CCN(CC)C(=O)CN1CCCN(C(=O)c2cc3ccccc3n2C)CC1 | -5% | 5%

Compounds listed so far with a CF3 group (four):
structure | StopGo RLuc | 2A firefly
Cc1ccc2c(c1)c1c(c(=O)n(Cc3ccccc3)c(=O)n1Cc1cccc(C(F)(F)F)c1)n2C | -11% | -14%
O=C(NC1CC1)C(NCc1cccc(C(F)(F)F)c1)c1ccc(F)cc1 (centres undefined) | 61% | ?
O=C1CCCc2c1cc(C(=O)NC1CCCC1)c(=O)n2-c1ccc(C(F)(F)F)cc1 | -10% | 4%
O=C(COC(=O)CCc1c[nH]c2ccccc12)Nc1ccc([N+](=O)[O-])cc1C(F)(F)F | -6% | 20%

(further entries)
structure | StopGo RLuc | 2A firefly
O=C(NCc1ccc2c(c1)OCCO2)N1CCN(S(=O)(=O)c2ccccc2)CC1 | -19% | -22%
CC(Sc1ccc2c(c1)OCCO2)C(=O)Nc1ccc(C#N)cc1 (centres undefined) | -7%[1.06 µM] | ?
Cc1cc(C)c2nc(NC(=O)c3ccc(S(=O)(=O)N4CCc5ccccc54)cc3)sc2c1 | -11% | -18%
CN(C(=O)C1CCN(c2ncnc3c2nc2n3CCCCC2)CC1)c1ccccc1F | 7% | -3%
CCCn1c(=O)n(CC(=O)NC2(c3noc(C)n3)CCCC2)c2ccccc21 | 2% | 2%
C1CCN(CC2CCCN2)CC1 (centres undefined) | 3% | 5%
O=c1ccc2cc(S(=O)(=O)Nc3ccc(F)c(Cl)c3)ccc2[nH]1 | 61%[activator] | -20%
Cc1c(Cl)cccc1NC(=O)CSc1nnc2[nH]c(=O)c(Cc3ccccc3)nn12 | -10% | -3%
O=C(NCc1ccco1)C(c1ccccc1)c1ccccc1 | -2% | 5%
O=C(Cc1cccc(C(F)(F)F)c1)NCCc1cccnc1 | -3% | 1%
Cc1ccc2c(c1)[C@]1(C(=O)N2)N2CCC[C@H]2[C@@H](C(=O)c2ccccc2Cl)[C@]12C(=O)Nc1ccccc12 | -14% | -3%
COC(=O)CC1c2cc(OC)c(OC)cc2CCN1C(=O)Nc1ccc(C)cc1Cl (centres undefined) | -6% | -2%
CCOC(=O)c1ccc(-c2ccc(/C=C(\C#N)C(=O)Nc3ccc(C)cc3OC)o2)cc1 | 8% | 8%
Cc1nn(CC(=O)NCc2ccc(N(C)C)cc2)c(=O)c2nn(-c3ccccc3)c(C)c12 | -5% | -5%
COc1cccc(N2CCN(Cc3nc(N)nc(Nc4ccccc4C)n3)CC2)c1 | -11% | -1%
Cc1ccc(NC(=O)c2c(NC(=O)c3ccccc3Cl)sc3c2CCC3)cc1 | -6% | -10%
COc1ccc2c(-c3ccccc3)cc(SCC(=O)N(C)C)nc2c1 | 23% | 6%
CCCc1cc(=O)oc2c(C)c(OCC(=O)NCCCN3CCOCC3)ccc12 | -1% | 3%
CCCC(=O)NC1CC(=O)N(c2ccc3c(c2)OCCO3)C1 (centres undefined) | -9% | -1%
COC(=O)c1cccc(Nc2c(-c3cc(Br)ccc3O)nc3nc[nH]n23)c1 | -10% | -2%
COC(=O)CCC(C)C1CCC2C3CCC4C[C@H](OC(=O)c5ccccc5)CCC4(C)C3CC(=O)C12C (some centres undefined) | 3% | -8%
C/C(=C\C(=O)O)C(=O)Nc1cccc(C(F)(F)F)c1 | 1% | 11%
CCOc1ccc(S(=O)(=O)NCc2ccco2)cc1 | 93%[activator] | 3%
CCNC(=O)CN(CC)c1nc(C(F)(F)F)nc2ccccc12 | -16% | -7%
COc1cccc(CNC(=O)CSc2nc(=O)[nH]c3c2CCCC3)c1 | -2% | -21%
Cc1ccc(C)c(OCC(O)Cn2nnc(-c3cccnc3)n2)c1 (centres undefined) | -11% | -1%
CCC(CC)NC(=O)/C=C/c1csc(C)n1 | 11% | 0%
N#C/C(=C/c1ccc2c(c1)OCCO2)c1ccccn1 | 14% | 72%[activator]
Cc1ccc2c(COC(=O)c3ccc4ccccc4c3)cc(=O)oc2c1 | -12% | -7%
Cc1ccc(Cl)cc1NC(=O)c1nnn(Cc2ccccc2)c1N | 104%[activator] | 11%
Cc1ccc(C2CCCN2Cc2nc(-c3cccs3)no2)cc1 (centres undefined) | 13% | 19%
COc1ccccc1NC(=O)n1ncc2c(C)cccc21 | 2% | 5%
CC(=O)Nc1ccc(S(=O)(=O)N2CCN(c3ccccc3)CC2)cc1 | 11% | 11%
O=C(Oc1ccc(OCc2ccccc2)cc1)c1cnc2ccccc2n1 | -8%[1.06 µM] | 32%[activator]
Cc1ccc(OCCCCn2cnc3ccccc32)cc1 | ? | ?
COC(=O)CCCc1c(-c2ccccn2)[nH]c2ccccc12 | 4% | 16%
CCCC(=O)N1CCN(CCNc2cc(=O)oc3ccccc23)CC1 | -11% | -7%
Cc1ccc(NC(=O)c2cc3c(s2)CCCCC3)c(C)c1 | 19% | 243%[activator]
Cc1cc(C)cc(NC(=O)CCc2ncc(-c3ccc(F)cc3F)o2)c1 | -5% | 17%
CCC(=O)N1CCc2cc(Br)c(S(=O)(=O)CCC(=O)NCCC(C)C)cc21 | 1% | -15%
CCOC(=O)CCn1nc(C)c2c(C)n(-c3ccccc3)nc2c1=O | 0% | 0%
CCCCCSc1nnc2c(n1)OC(CC)Nc1ccc(Br)cc1-2 (centres undefined) | -8% | 19%
Cc1cc(C)cc(-n2ccn(CC(=O)NCCc3ccccc3)c(=O)c2=O)c1 | 5%&-8% | -1%&-22%
COc1ccc(OC)c(NC(=O)Cn2c(=O)n(-c3cccc(C)c3)c(=O)c3c2c2cc(C)ccc2n3C)c1 | -17% | -22%
O=C(O)CN1C2=C(C(=O)CCC2)C(c2ccc(Cl)cc2)C2=C1CCCC2=O | 4% | -2%
CC1(CCc2ccccc2)NC(=O)N(NC(=O)CCc2c[nH]c3ccccc23)C1=O (centres undefined) | -24% | -30%
CCCNC(=O)CCc1c(C)nc2nc(CNC(=O)c3ccccc3)nn2c1C | -7% | -10%
CC(C)CCNC(=O)CCCN1C(=O)C(c2ccccc2)Oc2cccnc21 (centres undefined) | -3% | 14%
CCc1sc(C(=O)OCc2ccccc2C#N)cc1C | 5% | 47%[activator]
Cc1cc(C)cc(NC(=O)CSc2oc(-c3cccs3)nc2S(=O)(=O)c2ccc(Br)cc2)c1 | -6% | -16%

(list continues)
structure | StopGo RLuc | 2A firefly
Cc1ccc(-n2nc(C(=O)Nc3ccc(Cl)cn3)c3c4ccccc4n(C)c3c2=O)cc1 | -4% | -23%
CCOC(=O)c1sc(NC(=O)CCSc2ccc(Cl)cc2)nc1C | -4% | 1%
O=C(NCc1ccc(Cl)cc1)C(=O)c1cn(CC(=O)N2CCOCC2)c2ccccc12 | 0% | 87%[activator]
FC(F)(F)c1cccc(-c2noc(-c3ccc(Br)cc3)n2)c1 | -11% | 0%
C=CCn1c(SCC(N)=O)nc2c1c(=O)n(C)c(=O)n2C | 8% | 23%
Cc1ccc(S(=O)(=O)c2nc(-c3ccco3)oc2SCc2ccc(F)cc2)cc1 | 78%[activator] | -7%
COC(=O)C(CCSC)NC(=O)Cn1ncc2c([nH]c3ccccc32)c1=O (centres undefined) | -6% | -11%
CNC(=O)c1ccc(NS(=O)(=O)c2cc(C(C)(C)C)ccc2C)cc1 | 124%[activator] | ?
CCOP(=O)(OCC)c1nc(-c2ccccc2)oc1NCc1ccco1 | 32%[activator] | -14%

Three compounds from above, sorted by SMILES length, smallest number first:
structure | StopGo RLuc | 2A firefly
C=CCn1c(SCC(N)=O)nc2c1c(=O)n(C)c(=O)n2C | 8% | 23%
CCOP(=O)(OCC)c1nc(-c2ccccc2)oc1NCc1ccco1 | 32%[activator] | -14%
Cc1ccc(S(=O)(=O)c2nc(-c3ccco3)oc2SCc2ccc(F)cc2)cc1 | 78%[activator] | -7%

Compound activity as filed in PubChem BioAssay.

Some of the compounds tested; the hit share may differ from the screen's.
